AID923 – qHTS Assay for Allosteric/Competitive Inhibitors of Caspase-1: Spectroscopic Profiling in AFC Spectral Region. 1.1% of 75,000 active. AID 923, 2007. compound fluorescence, AFC spectral region (405/520 nm); almost no hit is shown here. Potency, µM (titrated, usually from 57.5 µM), without a hit: top-dose fluorescence increase, usual class: activators; active means well fitted activation curve with a large enough effect; inconclusive means small, poorly fitted or top-dose-only effect;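 further: potency means the concentration at half of the fitted maximal effect; 0% is about no effect; scaled to a free AFC standard on each plate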
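Titrations up to 57 uM read every 20 sec for 3 min (405/520 nm) with 50 nM caspase 1 and 5 uM Ac-WEHD-AFC, pH 7.5 HEPES buffer. Fluorescence-vs-time intercept gave baseline, scaled against on-plate AFC standard.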
A647 fluor – compound autofluorescence in A647 spectral region. Compound fluorescence, A647 channel (570/671 nm), Tris buffer. 59,000 tested, under 10 active. max dye-equivalent concentration, M; active means above 1 µM dye equivalent; inconclusive means 0.1 to 1 µM; inactive means 0.1 µM or less;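 further: values scaled relative to a standard on each plate; highest value over a series up to 38 µM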
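Spectral profiling of library compounds in pH 8.0 Tris: 15 min room-temperature incubation, single ex/em pair (570/671 nm), response normalized to Alexa 647 equivalents.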
Resorufin autofl – resorufin region autofluorescence; Compound fluorescence, resorufin region 547/598 nm, buffer; hits give high values; max dye-equivalent concentration, M; 0.04% of 59,000 active; AID 588; active = above 10 nM dye equivalent; inconclusive = 1 to 10 nM; inactive = 1 nM or less; a few of its hits are not listed in these tables; further: highest value over a series up to 38 µM
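Dye-equivalent concentration values derive from comparing each well's 547/598 nm fluorescence against resorufin standards included on every plate. Incubation was 15 min at room temperature in 100 mM Tris, pH 8.0.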
TSHR ag – agonists of human thyroid stimulating hormone receptor | HEK293-CNG-TSHR cells (CNG channel as cAMP sensor), membrane potential dye, cAMP | Potency, µM (highest dose often 57.1 µM), for the others: top-dose activation, actives largely listed as activators | 0.48% of 73,000 active | AID 926; active = well fitted activation curve of enough size with the parental cells flat; inconclusive = any curve in the parental cells; inactive = parental cells flat and receptor cells flat or falling; further: potency means the concentration at half of the fitted maximal effect; % of control where 0% means no effect; weak receptor curves with flat parental cells got no call and are not listed
Target sequence (P16473 whole entry, looked up): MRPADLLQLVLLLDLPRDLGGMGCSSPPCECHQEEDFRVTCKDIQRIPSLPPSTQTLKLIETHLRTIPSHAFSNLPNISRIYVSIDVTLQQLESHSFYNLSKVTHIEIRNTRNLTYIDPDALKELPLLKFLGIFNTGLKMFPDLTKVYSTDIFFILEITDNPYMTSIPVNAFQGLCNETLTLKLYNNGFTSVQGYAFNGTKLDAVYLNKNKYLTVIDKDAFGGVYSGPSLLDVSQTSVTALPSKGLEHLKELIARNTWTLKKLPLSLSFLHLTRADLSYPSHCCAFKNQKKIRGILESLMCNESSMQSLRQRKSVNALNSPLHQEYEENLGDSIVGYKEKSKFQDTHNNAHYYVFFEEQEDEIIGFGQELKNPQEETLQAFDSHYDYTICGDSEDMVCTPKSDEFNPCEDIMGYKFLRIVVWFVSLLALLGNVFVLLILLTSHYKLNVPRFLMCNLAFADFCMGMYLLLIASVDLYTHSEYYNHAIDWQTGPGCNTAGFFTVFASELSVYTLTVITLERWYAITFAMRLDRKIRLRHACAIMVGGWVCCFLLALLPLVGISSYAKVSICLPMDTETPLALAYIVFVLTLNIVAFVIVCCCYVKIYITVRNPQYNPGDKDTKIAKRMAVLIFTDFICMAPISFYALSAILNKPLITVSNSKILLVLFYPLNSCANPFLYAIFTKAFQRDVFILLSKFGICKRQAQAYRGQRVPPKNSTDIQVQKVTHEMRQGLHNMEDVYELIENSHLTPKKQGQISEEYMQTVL
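cAMP rise detected as CNG-channel membrane depolarization by fluorescent dye (emission 590 nm), 30 min after compound, following 60 min dye loading containing 100 uM RO 20-1724 at room temperature. Cells: TSHR/CNG HEK 293, with parental CNG HEK 293 as control.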
A488 fluor – compound fluoresces in the A488 spectral region; compound autofluorescence, A488 spectral region, dye equivalency; hits give high values; max dye equivalency, M; 0.1% of 59,000 active; AID 591; active = above 10 nM dye equivalent; inconclusive = 1 to 10 nM; inactive = 1 nM or less; about half of its hits are not listed in these tables;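 further: highest value over a series up to 38 µM; compound alone in buffer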
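Compounds pin-transferred into 100 mM Tris buffer, pH 8.0, incubated 15 min at room temperature, then imaged with 480 nm excitation/540 nm emission filters. Fluorescence converted to Alexa 488 dye-equivalent concentration via an on-plate six-point A488 standard curve.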
Active calls of the source: *; i = inactive; ? = inconclusive; . = no result given; [ ] = another dose, or the depositor's remark. This is a subset; count on the stated rates, not on these rows.

no. | SMILES | AID923 | A647 fluor | Resorufin autofl | TSHR ag | A488 fluor
1 | CN(C)S(=O)(=O)Nc1ccc(NS(=O)(=O)N(C)C)c(S(=O)(=O)c2ccccc2)c1 | . | 6.68e-08 | i | . | i
2 | CCCn1cnc2cc(NCc3cccc(OC)c3O)ccc21 | -0.1% | 1e-09 | i | -8.3% | i
3 | CCc1nc2nc(C)cc(Nc3cccc(C(F)(F)F)c3)n2n1 | 0.2% | 4.32e-08 | i | 12.7% | i
4 | COc1cccc(CN2CCN(C(=O)c3cccs3)CC2)c1OC | 0.2% | . | . | 3.5% | .
5 | CCOC(=O)C1=C(C)OC(N)=C(C(=O)OCC)C1c1ccncc1 (centres undefined) | -0.2% | . | . | 18.5% | .
6 | O=C(CN1CCCCC1)N1CCN(C(=O)CN2CCCCC2)CC1 | 0.2% | . | . | 5.5% | .
7 | COC(=O)/C=c1\sc2n(c1=O)C(C)=CC(C)(C)N=2 | 2.0% | 3.61e-08 | i | 1.5% | i
8 | O=C(NCCc1ccccc1)C1c2ccccc2C(=O)N1C1CC1 (centres undefined) | 0.3% | 2.47e-08 | i | 8.4% | i
9 | COC(=O)C(C#N)C(c1cccnc1)c1c(C)[nH][nH]c1=O (centres undefined) | -2.2% | 1.9e-08 | i | 5.2% | i
10 | c1ccc(N2CCN(c3nc4cc5c(cc4s3)OCO5)CC2)cc1 | -2.8% | 3.53e-08 | i | 1.1% | i
11 | O=C(NCC(=O)N(c1ccc2c(c1)OCO2)C(C(=O)NC1CCCC1)c1cccs1)c1ccco1 (centres undefined) | -0.9% | 7.5e-09 | i | -4.2%[11.4 µM] | i
12 | O=C1C(c2ccccn2)=[N+]([O-])c2ccccc21 | 12.1% | . | . | 12.7% | .
13 | CC(C)c1c(O)nc(SCC(=O)Nc2ccc3c(c2)CCC3)[nH]c1=O | 1.3% | 1e-09 | i | 3.1% | i
14 | CCc1c(C)c2ccc(OCC(=O)OC(C)C)c(C)c2oc1=O | -1.7% | 5.3e-09 | i | ? | i
15 | O=C1C(=O)N(Cc2cccnc2)C(c2ccccn2)/C1=C(/O)c1ccccc1 (centres undefined) | . | 5.5e-09 | i | . | i
16 | CCCCC(=O)Nc1ccc(NC(=O)C2CC2)cn1 | -0.8% | 3.2e-09 | i | -0.2% | i
17 | Cn1ccc(C(=O)OCC(=O)c2ccccc2)n1 | 1.1% | . | . | ? | .
18 | Cc1ccc(-c2nc3ccccc3[nH]2)cc1NC(=O)c1ccco1 | 0.3% | 4.8e-09 | i | 4.5% | i
19 | Cc1c(NC(=O)Nc2cccc(Cl)c2)c(=O)n(-c2ccccc2)n1C | 0.5% | . | . | 14.6% | .
20 | CCc1nnc(NC(=O)CCC(=O)N2CCN(C3CCCCC3)CC2)s1 | 1.9% | 6.4e-09 | i | 19.2% | i
21 | CCN1CCN(C(=O)CCCCCn2c(=O)[nH]c3cc(C(=O)OC)ccc3c2=O)CC1 | 0.9% | 1.2e-09 | i | -0.6% | i
22 | COc1cc(NC(=O)NCCN2CCN(c3ccc(Cl)cc3)CC2)ccc1C | -1.8% | 7.15e-08 | i | -6.1% | i
23 | CCCCn1c(NCCO)nc2ccccc21 | 2.1% | . | . | 7.3% | .
24 | CCCc1cc(C(N)=O)c(NC(=O)c2ccoc2C)s1 | 4.5% | 2e-09 | i | -2.5% | i
25 | COc1cccc(-c2nnc3sc(-c4ccccn4)nn23)c1 | -0.3% | 1.9e-08 | i | 19.8% | i
26 | Cn1c(SCCCC(=O)c2ccccc2)nnc1-c1ccncc1 | -0.5% | 9e-09 | i | -0.5% | i
27 | N=C(N)SCCON1C(=O)c2ccccc2C1=O | 0.2%[11.5 µM] | 2.67e-08 | i | -1.6%[11.4 µM] | i
28 | CS(=O)(=O)NCc1ccc(C(=O)NCCOc2ccccc2)cc1 | 1.5% | 1.5e-09 | i | -2.4% | i
29 | Cc1sc2ncnc(SCC(=O)NC(=O)NCc3ccco3)c2c1C | 0.9% | 1e-09 | i | -0.8%[11.4 µM] | i
30 | CCCCCn1c(N2CCN(c3cccc(Cl)c3)CC2)nc2c1c(=O)[nH]c(=O)n2C | 1.2% | 2.99e-08 | i | . | i
31 | CCCc1cc(C(=O)Nc2nccs2)cs1 | -1.8% | 7.9e-09 | i | 6.7% | i
32 | CCOC(=O)c1cccc(NC(=O)Nc2cc(OC)ccc2OC)c1 | -1.7% | 1e-09 | i | ? | i
33 | CCOC(=O)CSc1nc2sc3c(c2c(=O)[nH]1)CCCC3 | -2.3% | . | . | 8.9% | .
34 | Cc1ccc(S(=O)(=O)C2(S(=O)(=O)c3ccc(C)cc3)CCCC2)cc1 | 0.0% | . | . | 22.5% | .
35 | O=S(=O)(c1ccc(Br)s1)N1CCN(c2ccccc2)CC1 | -0.6% | 1e-09 | i | 17.6% | i
36 | CC(C)NC(=O)N1CC[C@@]2(CCCN(C(=O)c3cccc(F)c3)C2)C1 | -0.4% | 4.1e-09 | i | ? | 3.34e-08M*
37 | CC(=O)OC[C@H]1O[C@@H](O/N=C2/[C@H]3O[C@@H]3[C@@H](O)[C@H]3[C@H]2CCn2c(=O)n(-c4ccccc4)c(=O)n23)[C@H](OC(C)=O)[C@@H](OC(C)=O)[C@@H]1OC(C)=O | -1.1%[11.5 µM] | . | . | -2.3%[11.4 µM] | .
38 | Cc1cc(NC(=O)COC(=O)CCC(=O)c2ccc(F)cc2)no1 | 1.4% | 1.1e-09 | i | 17.0% | i
39 | CCOC(=O)c1cc(-c2ccncc2)nc2c1c(C)nn2-c1ccccn1 | 7.0% | 1.96e-08 | i | ? | i
40 | COc1cc(C(=O)NC2CC3CCCC(C2)N3CC(=O)Nc2ccccc2)cc(OC)c1OC (centres undefined) | -2.0% | 4.06e-08 | i | 9.9% | i
41 | Cc1cc(NC(=O)COC(=O)CCCOc2ccc(Cl)cc2C)no1 | 1.6% | 2.43e-08 | i | 10.8% | i
42 | O=C(NCCc1c[nH]c2ccccc12)c1cc(S(=O)(=O)N2CCCCC2)ccc1N1CCOCC1 | -1.6% | 8.9e-09 | i | -5.4% | i
43 | O=C(O)c1ccc(CSCc2ccccc2F)o1 | 0.0% | 2.23e-08 | i | -1.3%[11.4 µM] | i
44 | Cn1c(SCC(=O)NCc2ccco2)nc2ccccc2c1=O | -0.1% | 1e-09 | i | 10.4% | i
45 | COc1ccc(O[C@H]2C=C[C@@H](c3ccccc3)O[C@H]2COC(=O)CC/C(C)=N\O[C@@H](C)c2cc(-c3c(C)cc(C)cc3C)no2)cc1 | -0.5%[11.5 µM] | . | . | 9.8%[11.4 µM] | .
46 | CCC1CCCCN1C(=O)COc1cc(=O)n(C)c2ccccc12 (centres undefined) | 3.2% | . | . | 9.2% | .
47 | O=C(O)c1cnn2c1NC(c1ccc(F)cc1)CC2C(F)(F)F (centres undefined) | -0.4% | 2.11e-08 | i | 3.6% | i
48 | CCn1c(COc2ccc(C)cc2)nnc1SCC(=O)Nc1cc(OC)ccc1OC | 2.0% | 3.25e-08 | i | 16.5% | i
49 | O=C(/C=C\Nc1ccccn1)c1ccccc1 | 1.6% | . | . | 7.1% | .
50 | Cn1nccc1C(=O)Nn1cnnc1 | 0.6% | 9.4e-09 | i | 14.8% | i
51 | COc1ccc(C2=NOC(C(=O)NC(C)(C)C)C2)cc1 (centres undefined) | -0.3% | 2.5e-09 | i | 1.1% | i
52 | CCn1c(SCC(=O)Nc2ccc(OCc3ccccc3)cc2)nnc1-c1ccco1 | 2.9% | 1e-09 | i | 28.0% | i
53 | Cc1cc(NC(=O)CSc2ccc3nnc(-c4ccccc4)n3n2)no1 | -1.8% | 6.8e-09 | i | 5.7% | i
54 | CC(=O)Nc1ccc(N/C=C/C(=O)C(C)(C)C)cc1 | 0.2% | 1.43e-08 | i | -3.3% | i
55 | Cc1nc(NCc2ccc3c(c2)OCO3)c2oc3ccccc3c2n1 | -0.5% | 2.35e-08 | i | ? | i
56 | Cc1ccc(NC(=O)CCNS(=O)(=O)c2ccc3c(c2)oc(=O)n3C)cc1 | 0.3% | 4.07e-08 | i | -0.5% | i
57 | Cc1cc(C)nc(NC(=O)CSc2nn(C)c(=S)s2)n1 | 1.0% | 6.9e-09 | i | 0.4% | i
58 | CCOC(=O)N1CCC(NC(=O)c2cc(C(=O)Nc3cccc(OC)c3)ccc2CO)CC1 | 0.9% | 6.1e-09 | i | 3.8% | i
59 | Brc1ccccc1-c1nnc(CSc2nnnn2-c2ccccc2)o1 | 0.7% | 1.6e-09 | i | -1.9%[11.4 µM] | i
60 | CCNC(=O)CCc1nc(-c2ccc(C(C)(C)C)cc2)no1 | 0.7% | 1e-09 | i | 11.2% | i

Next part
no. | SMILES | AID923 | A647 fluor | Resorufin autofl | TSHR ag | A488 fluor
61 | CCOC(=O)c1sc(NC(=O)c2ccc(C)o2)nc1C | -1.3% | . | . | ? | .
62 | O=C(c1nc2ncccn2n1)N1CCc2ccccc2C1 | 0.0% | 8.8e-09 | i | -3.7% | i
63 | CCCN(CCC)C(=O)CCS(=O)(=O)c1cccc2nsnc12 | 0.4% | 4e-09 | i | 2.3% | i
64 | CSc1nc(SCC(=O)NCc2ccco2)c2c3c(sc2n1)CN(C)CC3 | 1.4% | 1.88e-08 | i | 5.9% | i
65 | O=C(Cn1nc(-c2ccccc2)c2ccccc2c1=O)Nc1ccc2c(c1)nc1n2CCOC1 | 1.7% | 3.75e-08 | i | ? | i
66 | O=C(Nc1ccc2c(c1)OCO2)c1cccc2c1C(=O)N(C1CCCCC1)C2 | -1.7% | 3.75e-08 | i | 3.16µM* | i
67 | CC1CCN(CCCNC(=O)c2cn(C)c3ccc(S(=O)(=O)N4CCCC4)cc3c2=O)CC1 | 0.5% | 3.2e-09 | i | 11.3%[11.4 µM] | i
68 | COc1ccc(S(=O)(=O)N(C)CC(=O)NCCC2=CCCCC2)cc1 | 0.2% | 1e-09 | i | 4.4% | i
69 | c1ccc(-c2csc3ncnc(NCCN4CCOCC4)c23)cc1 | -0.5% | 1e-09 | i | 1.7% | i
70 | Cc1nn(C)cc1C(N)=O | 2.1% | 3.2e-09 | i | -3.7% | i
71 | Cc1cc(C)n(-c2nc3ccccc3c(=O)n2OCC(=O)OCc2ccccc2)n1 | -1.4% | 2.2e-09 | i | ? | i
72 | CCOC(=O)N1CCN(C(=O)CN(c2cc(C(F)(F)F)ccc2Cl)S(C)(=O)=O)CC1 | 0.0% | . | . | 3.5%[11.4 µM] | .
73 | O=C(NCCC1=CCCCC1)C1COc2ccccc2O1 (centres undefined) | -0.6% | 1.62e-08 | i | 11.8% | i
74 | Cc1ccc(C)c2[nH]c(=O)c(CN(Cc3ccco3)C(=O)Nc3ccccc3)cc12 | -2.7% | 1e-09 | i | ? | i
75 | CSc1nc2c(c(=O)n1C)SC(C)C2 (centres undefined) | 1.2% | . | . | 2.2% | .

A second format for two compounds above.
Under each structure – AID923	A647 fluor	Resorufin autofl	TSHR ag	A488 fluor
#72 CCOC(=O)N1CCN(C(=O)CN(c2cc(C(F)(F)F)ccc2Cl)S(C)(=O)=O)CC1
  0.0%	.	.	3.5%[11.4 µM]	.
#75 CSc1nc2c(c(=O)n1C)SC(C)C2 (centres undefined)
  1.2%	.	.	2.2%	.

Continued.
no. | SMILES | AID923 | A647 fluor | Resorufin autofl | TSHR ag | A488 fluor
76 | CC(C)(C)NC(=O)COc1ccc(CNn2nnnc2N)cc1 | -1.1% | 3.9e-09 | i | -0.2% | i
77 | CC(C(=O)Nc1nccs1)N1C(=O)C2CC=CCC2C1=O (centres undefined) | -0.7% | 3.71e-08 | i | -3.5% | i
78 | CCN(c1c(C)n(C)n(-c2ccccc2)c1=O)S(C)(=O)=O | -0.3% | 5.52e-08 | i | 4.2% | i
79 | CCOc1cccc(C(=O)Nc2ccc(N(CC)CC)cc2)c1 | -1.0% | . | . | 14.7%[11.4 µM] | .
80 | COc1ccc(O)c(-c2cc(-c3cccc(Br)c3)n[nH]2)c1 | 1.2% | . | . | -31.2%[inhibitor] | .
81 | CCOC(=O)c1cccc(NC(=O)C2CCN(S(=O)(=O)c3cccs3)CC2)c1 | -0.6% | 1e-09 | i | 0.7% | i
